# Screening data: PubChem, National Center for Advancing Translational Sciences (NCATS)
# TRPML1 ag: qHTS for Agonists of the Human Mucolipin Transient Receptor Potential 1 (TRPML1) | 410,000 tested, 0.12% active | activation, % (no concentration beside the values) | TRPML1-expressing cells, Ca2+ dye fluorescence, FDSS; host cell line not named in the record; reference of the full effect not given here | Mucolipin-1 (Homo sapiens), Q9GZU1; in the data active = activation above about 50%; inconclusive = about 30% to 50%; inactive = below about 30%; also: 0% is about no effect; the text of the record puts the active cut at 80%
# Target sequence (Q9GZU1 whole entry, looked up): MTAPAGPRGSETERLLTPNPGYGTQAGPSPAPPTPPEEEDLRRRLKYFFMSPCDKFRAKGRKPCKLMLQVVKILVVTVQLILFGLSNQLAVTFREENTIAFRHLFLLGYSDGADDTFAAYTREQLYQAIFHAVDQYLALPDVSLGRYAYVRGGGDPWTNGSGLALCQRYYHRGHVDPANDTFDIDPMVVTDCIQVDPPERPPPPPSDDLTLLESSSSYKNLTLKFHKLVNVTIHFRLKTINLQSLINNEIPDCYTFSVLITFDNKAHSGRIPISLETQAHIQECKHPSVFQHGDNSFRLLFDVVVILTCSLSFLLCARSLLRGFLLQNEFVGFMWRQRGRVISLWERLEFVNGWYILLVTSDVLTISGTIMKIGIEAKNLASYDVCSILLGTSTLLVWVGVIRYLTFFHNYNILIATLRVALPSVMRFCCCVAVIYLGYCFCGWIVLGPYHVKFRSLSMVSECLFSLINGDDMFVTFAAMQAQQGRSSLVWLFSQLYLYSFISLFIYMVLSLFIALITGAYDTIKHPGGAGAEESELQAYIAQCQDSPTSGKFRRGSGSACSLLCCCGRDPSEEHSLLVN
#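 In this qHTS format, compounds were pin-transferred onto Ca8-dye-loaded TRPML1-DL cells induced with Tet overnight, and intracellular Ca2+ fluorescence was recorded kinetically for 110 s after a 10 s baseline. A subsequent 4uM final 54-4 (EC80) addition followed by a second 110 s read served as the antagonist phase.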
# TRPML1 inh: qHTS for Inhibitors of the Human Mucolipin Transient Receptor Potential 1 (TRPML1) | Mucolipin-1 (Homo sapiens), Q9GZU1 | 390,000 tested, 0.02% active | TRPML1-inducible cells, Ca2+ dye fluorescence, FDSS; active compounds read low; inhibition of EC80 agonist-evoked calcium signal | activity change, negative = inhibition, % (no concentration beside the values) | AID 624415, 2012; in the data active means activity change below about -50%; inconclusive means about -30% to -50%; inactive means above about -30%;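 also: stimulus is agonist 54-4 at its EC80 concentration; % is scaled to controls: 0 for no effect and ±100 for the full control effect; compound concentration not given in the record; the text of the record puts the active cut at -80%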
#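 Calcium fluorescence in TRPML1-DL cells induced overnight with Tet: a 110 s read after compound pin addition, then a 110 s antagonist read after challenge with 54-4 at 4 uM final (EC80).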
# Starred values were filed as active, the others as inactive; ? = inconclusive. These rows are one share of the data. The share of hits here may be higher or lower than overall.
# Values run as follows: TRPML1 ag	TRPML1 inh
O=C(Nc1ccc(F)cc1F)c1noc2c1CCc1ccccc1-2
  -0.7	-8.4
CCOc1ccc2nc(N3CCN(C(=O)c4ccc(S(=O)(=O)CC)cc4)CC3)sc2c1
  -0.5	11.4
CCCCNC(=O)c1nn(C)c2c1CSc1ccccc1-2
  2.2	1.4
N#Cc1ccc(CSc2nnc(-c3ccc(Br)cc3)o2)cc1
  2.0	-4.7
C=CCc1c(C)nc2nc(SCC(=O)Nc3ccc(C)c(C)c3)nn2c1C
  -0.2	13.0
CC1CCCN(CCCNC(=O)Cn2ncc3c([nH]c4ccccc43)c2=O)C1 (stereo not given)
  4.1	-6.9
Cn1c(=O)sc2cc(NS(=O)(=O)c3ccc(C(C)(C)C)cc3)ccc21
  -0.8	3.0
CCc1cccc(C)c1NC(=O)Cn1c(=O)cc(C(F)(F)F)c2c(C)nn(C)c21
  0.5	-14.1
CCOC(=O)c1ccc(N2CCN(c3cc(C)ccc3C)CC2)c(NC(=O)Nc2ccc(Cl)cc2)c1
  -0.3	2.5
COc1cc(C(CC(=O)N2CCOCC2)c2c(OC)cc(OC)c3c(-c4ccccc4)cc(=O)oc23)cc(OC)c1OC (stereo not given)
  1.0	19.5
COC(=O)c1c(-c2ccc(Cl)cc2)noc1N1CCN(c2ccc(OC)cc2)CC1
  -0.6	-14.3
Cc1oc2ncn(C)c(=O)c2c1C(=O)N(C)c1ccccc1F
  -0.7	13.4
CCOc1ccccc1C(=O)Nc1c(NC)c2ccccc2oc1=O
  -0.3	19.4
Cn1nc(C(=O)Nc2cccc(C(F)(F)F)c2)c2c1-c1ccccc1S(=O)(=O)C2
  -0.5	0.4
CCOC(=O)C1CCN(C(=O)Cn2ncc3c([nH]c4ccc(C)cc43)c2=O)CC1
  1.3	21.7
O=C(CSc1nccn1-c1ccc(Cl)cc1)Nc1cccc2ccccc12
  2.4	46.7
Cc1ccc(C)c(NC(=O)Cn2c(=O)n(CC(=O)NCCc3ccccc3)c(=O)c3ccccc32)c1
  0.0	-7.1
O=[N+]([O-])c1cc(-c2nc(-c3ccccc3)no2)ccc1NCc1ccco1
  -0.5	?
CCC(C(=O)N1CCN(c2ccccc2)CC1)n1nc(C)c2sc3ccccc3c2c1=O (stereo not given)
  0.6	-26.5
Cc1ccc(C(=O)Nc2ccc3c(c2)N(C)C(=O)c2ccccc2S3)cc1
  1.1	10.1
CCOc1ccc(CCNC(=O)c2ccc(CS(=O)(=O)c3ccccc3C)o2)cc1OCC
  2.3	1.4
COc1ccc(N2CCN(CCCNC(=O)C3COc4ccc(OC)cc4C3)CC2)cc1 (stereo not given)
  0.2	-2.9
Cc1cccc(N2CCN(S(=O)(=O)c3cc(Cl)ccc3Cl)CC2)c1C
  0.7	-12.6
COc1ccc(CCNC(=O)Cc2c(C)c3cc4c(C)coc4cc3oc2=O)cc1OC
  -0.5	-2.4
COc1cccc(NC(=O)Cn2c(=O)n(Cc3ccc4c(c3)OCO4)c(=O)c3oc4ccccc4c32)c1
  -0.1	7.8
Cc1cc(C(F)F)n2nc(C(=O)Nc3ccc(C(C)C)cc3)nc2n1
  -1.0	17.6
CCOc1ccccc1NC(=O)Cn1cnc2c1c(=O)n(C)c(=O)n2C
  -0.3	-8.5
COc1ccccc1-c1c(C)nn2c(C(F)(F)F)cc(-c3ccccc3)nc12
  2.4	35.7
COc1cc2c(cc1OC)C(c1ccc(F)cc1)N(c1ccc(F)cc1)C(=O)C2 (stereo not given)
  -1.0	5.0
COc1ccc2cc3cc(C(=O)NCc4ccc(C)cc4)oc3nc2c1
  -0.6	31.0
Cc1ccc(CNC(=O)CSCc2nc(-c3ccc(Cl)cc3)oc2C)cc1
  2.4	29.6
Cc1cc(=O)[nH]c2nnc(SCC(N)=O)n12
  -0.1	4.2
CCCN(Cc1cccs1)C(=O)Nc1ccc(F)c(Cl)c1
  0.8	29.7
COc1ccc(/C=C\c2onc(C)c2S(=O)(=O)N2CCC(C(=O)Nc3ccc(F)cc3F)CC2)cc1
  -0.4	-25.2
CSc1nc2c(c(=O)[nH]1)C(c1cccc(F)c1F)CC(=O)N2 (stereo not given)
  -0.6	9.5
Cc1ccc(-c2nc(-c3cc4cccc(OCc5cccc(C)c5)c4oc3=O)no2)cc1
  0.3	16.6
Cc1cc(=O)[nH]c2nnc(SCc3ccc(Cl)c(Cl)c3)n12
  1.3	38.0
COc1cc(Nc2ncc3c(n2)CCN(Cc2ccc(OC(C)C)c(OC)c2)C3)cc(OC)c1
  3.3	-1.2
Cc1ccc(C)c(N2CCN(c3ncnc4onc(C)c34)CC2)c1
  0.5	10.7
CCC(=O)N1c2ccc(S(=O)(=O)CCC(=O)NCc3cccc(OC)c3)cc2CC1C (stereo not given)
  -0.5	-16.5

# Copied from the listing, 4 compounds:
# Values run as follows: TRPML1 ag	TRPML1 inh
Cc1cc(=O)[nH]c2nnc(SCc3ccc(Cl)c(Cl)c3)n12
  1.3	38.0
COc1cc(Nc2ncc3c(n2)CCN(Cc2ccc(OC(C)C)c(OC)c2)C3)cc(OC)c1
  3.3	-1.2
Cc1ccc(C)c(N2CCN(c3ncnc4onc(C)c34)CC2)c1
  0.5	10.7
CCC(=O)N1c2ccc(S(=O)(=O)CCC(=O)NCc3cccc(OC)c3)cc2CC1C (stereo not given)
  -0.5	-16.5

# Following part:
SMILES	TRPML1 ag	TRPML1 inh
Cc1cc(C)c2c(CC(=O)Nc3cc(C(F)(F)F)ccc3Cl)coc2c1	3.0	-12.1
CCOc1ccc(OC(=O)c2cn(-c3ccc(C)cc3)c(=O)c3ccccc23)cc1	1.2	18.1
CC(C)(C)c1ccc(-c2nnc(-c3ccccc3NC(=O)c3ccc(F)cc3F)o2)cc1	2.0	-12.8
CCOC(=O)c1ccc(NC(=O)c2ccc(-c3cccc(Cl)c3C)o2)cc1	0.7	-4.2
Cc1ccc(NC(=O)Nc2nnc(N(C)Cc3ccccc3)s2)cc1	-0.1	7.8
Cc1cc(C)c(NC(=O)c2ccc3nc(C(C)C)oc3c2)c(C)c1	-0.8	-5.4
Cc1ccc(NC(=O)CSc2nc3ccccc3nc2Cc2ccccc2F)cc1F	1.9	8.4
Cc1ccc(NC(=O)C(C)Sc2nc(=O)cc(N)n2-c2cccc(C)c2)cc1 (stereo not given)	1.0	19.1
CSc1cccc(NC(=O)c2cc3c(COC(C)=O)cnc(C)c3oc2=O)c1	20.8	-14.5
COc1ccccc1CSc1nc2n(n1)C(c1ccccc1)C(C(=O)Nc1ccc(C)cc1)=C(C)N2 (stereo not given)	2.1	10.7
NC(=O)c1c(NC(=O)c2cc(-c3ccc(F)cc3)on2)sc2c1CCCC2	1.6	35.8
Cc1ccc2nc3c(c(Nc4ccc(C)c(C)c4)c2c1)CCC3	0.4	3.7
CC(C)NC(=O)C1CCN(C(=O)c2cnn(-c3ccccc3)c2-n2cccc2)CC1	0.1	-10.9
CCCCn1c(-c2ccc(S(=O)(=O)N3CCOCC3)cc2)csc1=Nc1ccccc1	0.9	14.8
CC(C)c1ccc(Nc2ncnc3onc(-c4ccc(F)cc4)c23)cc1	2.0	59.0
COc1ccc(N2CCN(c3ccc(-c4nc(-c5cccc(C)c5)no4)cc3[N+](=O)[O-])CC2)cc1	-0.7	-7.0
CCOC(=O)c1sc2ncn(CC(=O)Nc3ccc(C)cc3Br)c(=O)c2c1C	0.2	3.2
COc1ccc(NC(=O)CC2NCCNC2=O)c(OC)c1 (stereo not given)	-0.2	-5.7
CCN(Cc1nc(-c2ccc(OC)cc2)oc1C)S(=O)(=O)c1ccc(C)cc1	3.2	20.6
CCc1ccc(C2CC(=O)c3c([nH]c(C(=O)OCc4ccc(C)cc4)c3C)C2)cc1 (stereo not given)	1.7	4.6
Cc1ccc(-n2nc(C(=O)NCCN(C)C)c(=O)n(C)c2=O)cc1	-0.6	12.3
CCc1ccccc1NC(=O)c1cnc2sc(N3CCOCC3)nn2c1=O	-0.6	5.5
CC1CCN(S(=O)(=O)c2ccc3c(c2)N(CC(=O)NC(C)(C)C)C(=O)CS3)CC1	-0.5	7.4
CCc1cnc2c(c1SCc1cc(OC)cc(OC)c1)c(=O)n(C)c(=O)n2C	0.8	-21.1
CCC(C(=O)Nc1ccc(C(=O)OC)cc1)n1nc(-c2ccc(C)c(C)c2)ccc1=O (stereo not given)	0.5	26.6
Cc1c(C)n(Cc2ccccc2)c2ccc(C(=O)N3CCN(c4ccccc4)CC3)cc12	1.4	32.4
COc1ccccc1C(=O)Nc1cc2c(cc1N1CCCCC1)n(C)c(=O)n2C	-1.5	13.2
CCCCCN1C(C(=O)c2ccccc2)=C(NC(=O)c2ccccc2Cl)c2ccccc2S1(=O)=O	-0.6	6.7
CCOC(=O)c1c(NC(=O)c2cc(-c3ccc(Br)cc3)on2)sc(C)c1C	-0.7	8.4
Cc1cccc(OC(=O)CSc2nnc(CNC(=O)c3ccccc3)o2)c1C	-0.4	-0.1
Cc1ccccc1OCC(=O)Nc1nnc(SCc2cc(=O)n3cccc(C)c3n2)s1	4.9	31.5
COCCCNC(=O)c1ccc(-c2nc(CS(=O)(=O)c3ccc(C)cc3)c(C)o2)cc1	0.5	16.4
CCc1cccc(C)c1Nc1c(-c2cccs2)nc2ncccn12	1.5	26.7
CCOC(=O)c1cc(-c2ccccc2)n(CC(=O)N(C)c2ccc(OC)cc2)c1C	2.1	-0.3
CCc1ccc(CNC(=O)c2cc(=O)[nH]c3ccc(S(=O)(=O)N4CCCCC4)cc23)cc1	0.1	-12.2
CCc1ccc(N2C(=O)CC(c3cc(OC)ccc3OC)C3=C2COC3=O)cc1 (stereo not given)	2.2	?
CCOC(=O)C1CCCN(c2nc3c(S(=O)(=O)c4ccc(C)c(C)c4)nnn3c3ccc(Cl)cc23)C1 (stereo not given)	-0.4	-13.3
COc1cc2ccccc2cc1C(=O)Nc1ccc2oc(-c3ccccc3)nc2c1	3.1	-4.9
COc1ccc(NS(=O)(=O)c2ccc(NS(=O)(=O)c3ccc4c(c3)OCCO4)cc2)cc1	1.6	-4.3
Cc1nc(-c2ccccc2)sc1CCNC(=O)c1ccco1	2.1	3.2
CCC1CCc2nc3sc(C(=O)Nc4ccc(F)c(F)c4)c(N)c3cc2C1 (stereo not given)	-0.6	-8.2
CCOc1ccccc1NC(=O)CCn1cnnn1	-0.4	17.0
Cc1ccc(Nc2nnc(-c3ccc(C)c(S(N)(=O)=O)c3)c3ccccc23)cc1	1.8	0.2
O=C(NC1CCCCC1)c1ccc2c(c1)N(Cc1cccc(F)c1)C(=O)c1ccccc1S2	3.2	68.7
CC(=O)OCC(NC(=O)C(Cc1ccccc1)NC(=O)OC(C)(C)C)C1OC(n2cc(C)c(=O)[nH]c2=O)C(OC(C)=O)C1OC(C)=O (stereo not given)	1.1	-10.3
COc1ccc2c(c1)CC(C(=O)NCCN1CCN(c3cccc(Cl)c3)CC1)CO2 (stereo not given)	-1.4	-1.8
O=C(Cn1ncn2c(cc3ccccc32)c1=O)NCc1ccc(F)cc1	-0.3	-5.6
CCOc1ccccc1NC(=O)c1cn(C2CCCCC2)c(=O)c2c1c1ccccc1n2C	1.7	-3.4

# The last 5 compounds of the section before lead into the next.
SMILES	TRPML1 ag	TRPML1 inh
O=C(NC1CCCCC1)c1ccc2c(c1)N(Cc1cccc(F)c1)C(=O)c1ccccc1S2	3.2	68.7
CC(=O)OCC(NC(=O)C(Cc1ccccc1)NC(=O)OC(C)(C)C)C1OC(n2cc(C)c(=O)[nH]c2=O)C(OC(C)=O)C1OC(C)=O (stereo not given)	1.1	-10.3
COc1ccc2c(c1)CC(C(=O)NCCN1CCN(c3cccc(Cl)c3)CC1)CO2 (stereo not given)	-1.4	-1.8
O=C(Cn1ncn2c(cc3ccccc32)c1=O)NCc1ccc(F)cc1	-0.3	-5.6
CCOc1ccccc1NC(=O)c1cn(C2CCCCC2)c(=O)c2c1c1ccccc1n2C	1.7	-3.4
O=c1cc(-c2ccc(F)cc2)nc(SCc2nc(-c3cccc(Cl)c3)no2)[nH]1	-0.1	0.5
CCC(Oc1ccccc1)C(=O)Nc1nnc(S(=O)(=O)N(CC)CC)s1 (stereo not given)	1.0	9.3
COc1ccccc1N1CCN(c2nc3ccccc3n3cnnc23)CC1	-1.3	5.6
Cc1cccc(C(=O)Nc2ccc(S(=O)(=O)N3CCCCC3c3cccnc3)cc2)c1 (stereo not given)	-0.5	0.5
O=C(Nc1cccc(F)c1)C1CCN(S(=O)(=O)c2ccc3[nH]c4c(c3c2)CCCCC4)CC1	1.3	8.7
CCOC(=O)CNS(=O)(=O)c1ccc(F)cc1Br	1.3	-5.9
COc1cc(NS(=O)(=O)c2cc3c(cc2C)n(C)c(=O)c(=O)n3C)cc(OC)c1	3.0	-7.2
O=C(NC1CC(=O)N(c2ccccc2)C1)c1cc2ccccc2o1 (stereo not given)	-0.7	-9.8
CC1=C(c2ccc(C)cc2)S(=O)(=O)NC1=NCc1ccccc1Cl	1.4	-6.3
CCC(Cc1ccccc1)NC(=O)c1ccc2nc(N3CCC(C)CC3)sc2c1 (stereo not given)	1.3	-5.5
COc1ccc(NC(=O)Cn2nnc(-c3nc(-c4ccncc4)no3)c2N)cc1OC	0.5	23.3
